# Screening data: PubChem, National Center for Advancing Translational Sciences (NCATS)
# TRPML1 ag: agonists of human TRPML1 channel | Q9GZU1 | TRPML1-expressing cells, Ca2+ dye fluorescence, FDSS; host cell line not named in the record; reference of the full effect not given here | activation, % (concentration not given with the values) | 410,000 compounds, 0.12% hits; in the data active = activation above about 50%; inconclusive = about 30% to 50%; inactive = below about 30%; note: 0% is about no effect; the text of the record puts the active cut at 80%
#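 In this qHTS format, compounds were pin-transferred onto Ca8-dye-loaded TRPML1-DL cells induced with Tet overnight, and intracellular Ca2+ fluorescence was recorded kinetically for 110 s after a 10 s baseline. A subsequent 4uM final 54-4 (EC80) addition followed by a second 110 s read served as the antagonist phase.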
# D2 PAM: potentiates the human D2 dopamine receptor allosterically | 360,000 compounds, 0.23% hits | P14416 | DiscoveRx D2 beta-arrestin cells, luminescence, 90 min; 100% = 57 uM dopamine signal | AID 624464 | potentiation, % (test concentration not listed); active = potentiation of 50% or more; inconclusive = 30% to 50%; inactive = 30% or less;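 note: compound concentration not given in the record; tested on top of an EC20 dose of dopamine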
#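 PathHunter beta-arrestin assay in DiscoveRx D2 cells. Compounds were added with an EC20 of dopamine (50 nM final) for 90 min at 37 deg C. Luminescence was read 1 h after detection reagent, with 57 uM dopamine as the EC100 control.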
# PINK1 expr mod: changes PINK1 expression | Potency, µM (series often up to 76.6 µM), without a hit: top-dose activation (PINK1 increase), actives largely listed as activators | AID 624263 | 410,000 compounds, 0.2% hits | PINK1 immunofluorescence, high-content cytometry, 24 h; active = well fitted activation curve with a large enough effect; inconclusive = small, poorly fitted or top-dose-only effect; inactive = flat fitted curve, though single readings scatter; cell line not stated here;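 note: potency is the fitted concentration of half-maximal effect; % of control where 0% means no effect; nearly all actives have a fitted effect of over 65% in size; a mitochondrial uncoupler was the plate control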
#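 Stable cell line, 250 cells/well, 12 h attachment; compounds pinned at 5 concentrations, 24 h; CCCP control. Fixed with nuclear dye, primary antibodies 12 h at 10 degrees C, secondary plus cell stain; laser-scanning cytometer read.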
# CtBP-E1A blk: CtBP/E1A binding inhibition. AlphaScreen GST-E1A/His-CtBP binding, 1536-well; active compounds read low; control for the full effect not named in the record. activity change, % (no concentration beside the values). 340,000 compounds, 0.49% hits. AID 651724; in the data active means activity change below about -65%; inconclusive means about -30% to -65%; inactive means above about -30%; note: % is set by controls: 0 for no effect and ±100 for the full control effect
#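 AlphaScreen with 125 nM GST-E1A and 125 nM His-CtBP (5X stocks) in Tris pH 8.0, 300 mM NaCl, BSA, Tween 20, TCEP. Compounds preincubated 2 h at 37 deg C, then glutathione donor/nickel acceptor beads added for 1 h at 37 deg C in dark.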
# D2 ag: human D2 receptor agonism in beta-arrestin assay; activation, % (no concentration beside the values); DiscoveRx PathHunter D2 beta-arrestin, luminescence, 90 min; 100% = 57 uM dopamine signal; P14416; 360,000 compounds, 0.084% hits; in the data active = activation above about 40%; inconclusive = about 15% to 40%; inactive = below about 15%; note: compound concentration not given in the record; the text of the record calls up to 30% inactive
#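 Agonist mode: compounds alone added to overnight-plated D2 PathHunter cells for 90 min at 37 C, with 57 uM final dopamine (EC100) defining full response. Beta-arrestin recruitment detected by chemiluminescent reagent, read after 1 h at ambient temperature.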
# Six1-Eya2 inh: blocks human Six1 binding to Eya2; AlphaScreen GST-Six1/His-Eya2 binding, biochemical; active compounds read low; control for the full effect not named in the record; 360,000 compounds, 0.56% hits; activity change, % (no concentration beside the values); Q15475+O00167; in the data active = activity change below about -65%; inconclusive = about -30% to -65%; inactive = above about -30%; note: % is set by controls: 0 for no effect and ±100 for the full control effect
# Target sequence (O00167 whole entry, looked up): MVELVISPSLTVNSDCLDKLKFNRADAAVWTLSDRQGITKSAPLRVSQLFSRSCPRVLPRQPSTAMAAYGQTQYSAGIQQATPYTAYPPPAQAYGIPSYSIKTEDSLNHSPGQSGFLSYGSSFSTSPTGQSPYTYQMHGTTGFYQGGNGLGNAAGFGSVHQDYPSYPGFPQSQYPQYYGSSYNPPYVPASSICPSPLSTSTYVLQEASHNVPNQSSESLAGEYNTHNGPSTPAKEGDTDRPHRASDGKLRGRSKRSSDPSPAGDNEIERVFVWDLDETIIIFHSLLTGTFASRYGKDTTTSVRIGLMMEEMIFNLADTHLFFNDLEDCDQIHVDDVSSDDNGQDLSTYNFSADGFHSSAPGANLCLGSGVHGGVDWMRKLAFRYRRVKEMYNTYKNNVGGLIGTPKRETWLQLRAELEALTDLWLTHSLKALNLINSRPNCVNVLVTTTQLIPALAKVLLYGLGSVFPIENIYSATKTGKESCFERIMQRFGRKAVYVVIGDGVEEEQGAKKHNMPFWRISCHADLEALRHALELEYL
# Target sequence (Q15475 whole entry, looked up): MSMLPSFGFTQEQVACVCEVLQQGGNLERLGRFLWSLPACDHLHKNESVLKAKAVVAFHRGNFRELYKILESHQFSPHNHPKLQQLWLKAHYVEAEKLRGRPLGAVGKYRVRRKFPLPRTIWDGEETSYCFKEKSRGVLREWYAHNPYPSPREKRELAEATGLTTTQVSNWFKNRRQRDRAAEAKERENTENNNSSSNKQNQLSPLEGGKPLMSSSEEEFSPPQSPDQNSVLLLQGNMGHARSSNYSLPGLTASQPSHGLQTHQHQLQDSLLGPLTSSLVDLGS
#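 Homogeneous AlphaScreen proximity assay pairing GST-Six1 with His-tagged Eya2 (added as 5X mix: 250 nM and 500 nM) in 50 mM Tris pH 8.0, 300 mM NaCl, 1 mM TCEP. Glutathione donor and nickel acceptor beads; 1 h, 37 °C, dark.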
# Active calls of the source: *; ? = inconclusive; · = no result given; & = joins results of further samples; [ ] = another dose, or the depositor's remark.
SMILES,TRPML1 ag,D2 PAM,PINK1 expr mod,CtBP-E1A blk,D2 ag,Six1-Eya2 inh
C1CCC(CNc2c3c(nc4nnnn24)CCCC3)CC1,-0.5,-4,-1.1%,3,-1.3,4
O=C(CCN=C1NS(=O)(=O)c2ccccc21)OCC(=O)c1ccc(F)c(F)c1,-0.7,-7,0.8%,8,-4.2,-1
O=C(Nc1ccccc1Br)c1cc(=O)c2ccccc2o1,1.3,-6,5.6%,1,-1.3,-1
Cc1ccccc1NC(=O)CSc1nnc(-c2ccco2)c(-c2ccco2)n1,-1.0,12,0.2%,-17,4.9,?
O=C(c1ccccc1)c1ccccc1C(=O)N1CCOCC1,0.3,22,1.1%[38.3 µM],6,-0.9,1
CCCCn1c(N)c(N(CCOC)C(=O)COC(=O)c2cc(CC)c(C)s2)c(=O)[nH]c1=O,0.3,5,1.3%,-6,-2.1,6
CCN1C2=C(C(=O)CCC2)C(c2ccc(O)c(Br)c2)C2=C1CCCC2=O,1.4,-1,-0.5%,-9,0.2,0
COc1ccc(-n2ncc(S(=O)(=O)c3ccccc3)c2-c2ccc(Cl)cc2)cc1,1.0,-8,1.9%,1,3.0,-8
Cc1cc(C)cc(NS(=O)(=O)c2ccc3[nH]cc(C(=O)NCc4ccco4)c(=O)c3c2)c1,0.3&1.1,27,-0.8%&11%,-21,3.8,?
Cn1ccc(C(=O)N/N=C/c2ccncc2)n1,0.3,-3,-0.3%,3,2.3,1
O=C(O)COCC(=O)N1CCCN(c2nccc(C(F)(F)F)n2)CC1,·,-6,0.0%,3,-6.3,-1
COc1cc(OC)cc(-c2sc3ccc(OC)cc3c2C#CCCO)c1,0.7,-8,3.7%,4,-3.0,-1
O=c1[nH]c(SCc2ccccc2)nc2c1cnn2-c1ccc(F)cc1,-0.6,-7,1.0%,-1,-5.0,-5
COc1nc(Oc2ccc(C(=O)OCC(N)=O)cc2)nc(N(C)C)n1,0.3,-4,·,5,-2.7,-1
CC(=O)Nc1ccc(S(=O)(=O)N2CCN(Cc3cccs3)CC2)cc1,1.2,-5,0.7%,4,5.1,-8
O=C(N/N=C/c1c(F)cccc1Cl)c1ccc(Cn2cc(Br)cn2)o1,1.1,-11,9.8%,-7,-4.0,4
CCOC(=O)c1c(NC(=O)C2COc3ccccc3O2)sc(C(C)=O)c1C (stereo unspecified),1.3,-8,8.4%[38.3 µM],-20,-0.3,-3
O=C(Cn1cc([N+](=O)[O-])cn1)NCCc1c[nH]c2ccccc12,3.1,-1,-0.5%,-1,-3.3,7
Cn1ccnc1SCC(=O)Nc1cccc2ccccc12,-0.8,-1,3.0%[38.3 µM],-3,-0.9,-3
CNS(=O)(=O)c1cccc2nsnc12,-0.2,0,0.3%,11,-0.4,-15
Fc1ccc(CNC(=S)NCc2ccc(F)cc2)cc1,0.7,-9,2.2%,-3,2.7,4
CCN(c1ccc(NC(=O)COC(=O)c2cc3ccccc3oc2=O)cc1)C(C)C,1.9,-11,1.6%,-11,-0.8,-19
O=C1CSCC(=O)N1Cc1ccc(Cl)c(Cl)c1,2.0,-1,1.3%,0,2.4,-7
CCc1nc(SCc2ccccc2C#N)n[nH]1,-1.4,7,-0.5%,4,-1.4,3
CCCNC(=O)C1(C)CCCN(Cc2c(F)cccc2F)C1 (stereo unspecified),-0.7,-2,0.1%,0,-1.7,2
Cc1ccc2c(c1)N(CC(=O)N(Cc1ccc3c(c1)OCO3)CC1CCCO1)C(=O)C(C)O2 (stereo unspecified),1.0,-11,-6.0%[38.3 µM],-12,-4.1,-5
N#Cc1cc2c(cc1NC(=O)CCn1cnnn1)OCO2,-0.8,-5,0.4%,·,1.6,0
CSc1ccccc1OCc1cc(C(=O)N(C)Cc2ccc3nsnc3c2)no1,3.3,-3,-0.4%,-2,-0.7,-4
CCc1c(C)sc(NC(=O)c2ccco2)c1C(=O)N1CCCCC1,3.5,2,2.5%[38.3 µM],-2,-2.0,-2
OC(c1cccc(Cl)c1)c1ncc(-c2cccc(C(F)(F)F)c2)[nH]1 (stereo unspecified),0.7,-3,27%,-14,-1.2,-21
COc1ccccc1CNC(=O)OCc1nccnc1C(=O)Nc1ccc(Br)cn1,1.0,-6,4.5%,·,2.1,-2
COc1ccc(OC)c(NC(=O)C(=O)NNC(=O)COc2ccc(Br)cc2C)c1,1.1,-3,3.5%,·,-3.6,13
O=C(NCc1n[nH]c(=S)n1-c1cccc(C(F)(F)F)c1)c1ccc(S(=O)(=O)N2CCCC2)cc1,0.8,-17,4.8%,·,-6.6,1
O=C(Nc1ccnn1C1CCN(CCCc2ccccc2)CC1)c1ccccc1Cl,0.4,13,-2.2%,-2,?,5
CCC(C)Nc1c2c(nc3c(-c4ccccc4)c(C)nn13)CCC2 (stereo unspecified),0.6,-20,10%[38.3 µM],26,-1.5,14
Cc1ccc(NC(=O)COC(=O)c2ccc3c(c2)NC(=O)C2CCCN32)cc1 (stereo unspecified),-0.6,-1,15%[38.3 µM],3,-5.4,-4
CC(C)n1nnnc1SCC(=O)N1CCOCC1,0.1,-3,0.8%,0,-2.0,3
CNc1nc(Nc2ccc(C(=O)OC)cc2)c2sccc2n1,-1.2,-2,5.3%,?,-4.4,?
COC(=O)c1onc(-c2c(C)cc(C)cc2C)c1C(=O)OC,1.8,17,0.2%,-1,-1.2,17
Cc1ccc(C(=O)Nc2ccc3ccccc3n2)cc1,1.8,10,3.0%,12,1.0,2
C[C@@H](O)C1NC(=O)[C@H](CCCCN)NC(=O)c2cc([N+](=O)[O-])cc(I)c2NCCC[C@@H](C(N)=O)NC1=O (stereo partly specified),-0.4,6,2.0%,25,1.4,15
CCN(C[C@H]1N[C@@](Cc2ccccc2)(C(=O)OC)[C@H]2C(=O)N(Cc3ccccc3)C(=O)[C@@H]12)C(=O)c1ccc(C)cc1,0.8,·,-1.0%,5,0.6,5
CCNC(=O)C1(C)CCN(C(=O)c2cccc(C(F)(F)F)c2)C1 (stereo unspecified),-0.5,0,0.4%,10,3.3,2
CC(=O)Nc1ccc(S(=O)(=O)N(C)CC(=O)NC2CCCC(C)C2C)cc1 (stereo unspecified),0.6,-30,0.4%,-1,-6.6,-1
O=C(COC(=O)c1ccccc1)Nc1cc(Cl)ccc1Oc1ccccc1,1.0,-6,1.1%,·,-6.7,5
COc1ccccc1CNC(=O)C(NC(=O)c1ccccc1C)C(C)C (stereo unspecified),-0.5,-4,0.6%,·,6.7,1
CC(C)(C)OC(=O)CNC(=O)c1[nH]cnc1C(=O)N[C@@H](Cc1ccccc1)C(=O)OCc1ccccc1,0.6,-22,6.9%,-2,-0.3,-3
CCOC(=O)C1=C(C)NC2=C(C(=O)C(C(=O)OCC)C(c3cccc(OC)c3)C2)C1c1ccccn1 (stereo unspecified),0.0,-17,-1.0%,15,-2.0,7
CCOC(=O)c1ccc(NC(=S)N2CCCC(C(=O)N3CCCC3)C2)cc1 (stereo unspecified),1.1,9,-3.4%,0,-1.9,-7
COC(CNC(=O)c1cccc2c1C(=O)N(Cc1cccnc1)C2)OC,-0.2,-24,-0.6%,2,-4.8,-1
# (more compounds)
SMILES,TRPML1 ag,D2 PAM,PINK1 expr mod,CtBP-E1A blk,D2 ag,Six1-Eya2 inh
COc1ccc(C(=O)NCc2ccc(C)cc2)cc1S(=O)(=O)N1CCOCC1,-0.6,-15,1.8%,28,-2.1,-24
CC(=O)Nc1ccc2nc(SCC(=O)NCCOc3ccccc3)sc2c1,-0.2,-4,-2.5%,·,1.9,-7
C=CCOc1ccccc1CN1CCC(Oc2ccc(C(=O)N3CCCCC3)cc2)CC1,0.1,-46,1.2%,3,-4.5,-6
Nc1c(N(CCC2=CCCCC2)C(=O)c2ccc([N+](=O)[O-])o2)c(=O)[nH]c(=O)n1Cc1ccccc1,0.4,?,6.2%,0,8.6,-2
CCO[C@H]1OC(C(N)=O)=C[C@@H](c2csc3ccccc23)[C@@H]1CCCO,0.0,-23,0.4%,-12,2.1,2
CCn1cc(C(=O)NCCCN2CCC(C)CC2)c(=O)c2cc(S(=O)(=O)N3CCCC3)ccc21,-0.8,-16,-2.5%[38.3 µM],-4,-0.9,-2
CC(C)c1ccc(NC(=O)CNS(=O)(=O)c2ccc(F)cc2)cc1,1.6,-16,1.2%,-3,-1.6,5
CCC(C)NS(=O)(=O)c1ccc(S(=O)(=O)N2CC=C(c3ccc(F)cc3)CC2)cc1 (stereo unspecified),3.1,-2,-1.0%,3,2.0,-4
CN(C)S(=O)(=O)c1ccc(N2CCCC2)c(C(=O)OCC(=O)NC2CCCCC2)c1,1.6,-9,-0.4%,-5,0.2,3
CCOC(=O)C1Oc2ccccc2C(c2cccc3ccccc23)=C1C(=O)OC (stereo unspecified),0.6,-6,0.3%,2,-2.2,3

# An excerpt from above in order of their number in D2 PAM, smallest number first.
canonical_smiles	D2 PAM
C=CCOc1ccccc1CN1CCC(Oc2ccc(C(=O)N3CCCCC3)cc2)CC1	-46
CCn1cc(C(=O)NCCCN2CCC(C)CC2)c(=O)c2cc(S(=O)(=O)N3CCCC3)ccc21	-16
CN(C)S(=O)(=O)c1ccc(N2CCCC2)c(C(=O)OCC(=O)NC2CCCCC2)c1	-9

# Continuation.
SMILES,TRPML1 ag,D2 PAM,PINK1 expr mod,CtBP-E1A blk,D2 ag,Six1-Eya2 inh
Cc1ccc(NC(=O)CN(C)C(=O)COC(=O)c2nccnc2N)cc1,-0.5,-6,-0.5%,·,-3.8,0
COc1ccc(/C=C(/C(=O)Nc2ccccc2C(=O)N2CCCC2)c2ccccc2)cc1,1.1,3,-0.7%,-4,0.0,-1
COc1ccc(Cc2nnc(SCC(=O)N(C)CC(=O)Nc3ccc(C)cc3)o2)cc1,-0.9,-1,0.5%,-1,-1.2,3
COc1ccc(NC(=O)CS(=O)c2cccc(C(F)(F)F)c2)cc1 (stereo unspecified),0.0,-15,1.4%,1,-0.9,-3
COc1ccc(CCN2C(=O)C3C4C=CC(C4)C3C2=O)cc1OC (stereo unspecified),-0.4,0,20%[38.3 µM],7,2.0,0
COc1ccc(CCNC(=O)C2CC3Cn4c(nc5ccccc54)C3N2c2ccccc2)cc1 (stereo unspecified),0.5,-14,2.6%,1,-0.6,5
COC(=O)c1c(C)oc2c1cc(NS(=O)(=O)c1ccc(C(=O)O)cc1)c1ccccc12,-0.7,14,-0.5%,-12,1.3,-27
CCOc1cc(C(=O)Nc2ccc(N3CCOCC3)cc2)cc(Br)c1OC,-0.3,-11,9.7%,-8,-1.2,-1
CC(=O)NCC(=O)OCC(=O)c1ccccc1,-0.6,-3,0.6%[38.3 µM],8,-3.9,0

# 3 entries drawn at random from the list so far:
SMILES,TRPML1 ag,D2 PAM,PINK1 expr mod,CtBP-E1A blk,D2 ag,Six1-Eya2 inh
COC(=O)c1c(C)oc2c1cc(NS(=O)(=O)c1ccc(C(=O)O)cc1)c1ccccc12,-0.7,14,-0.5%,-12,1.3,-27
COc1ccc(Cc2nnc(SCC(=O)N(C)CC(=O)Nc3ccc(C)cc3)o2)cc1,-0.9,-1,0.5%,-1,-1.2,3
Cc1ccc(NC(=O)CN(C)C(=O)COC(=O)c2nccnc2N)cc1,-0.5,-6,-0.5%,·,-3.8,0
